Compound activity deposited in PubChem BioAssay by National Center for Advancing Translational Sciences (NCATS).
VACV Venus inh: inhibitors of vaccinia virus (Venus reporter) | Vaccinia virus Venus reporter expression, fluorescence | Potency, µM (top dose mostly 36.5 µM), without a hit: top-dose activity change, negative = inhibition, usual class: inhibitors | 330,000 compounds, 0.46% hits | AID 720580; active means well fitted inhibition curve with a large enough effect; inconclusive means small, poorly fitted or top-dose-only effect; inactive means no such curve, though single readings can be large or run the other way; tested in A549 cells; further: nearly all actives have a fitted effect of over 30% in size; inactives centre near -10
Vaccinia mCherry: inhibitors of vaccinia virus infection (mCherry reporter signal). 310,000 compounds, 0.63% hits. AID 720579. Vaccinia virus mCherry reporter infection, fluorescence; about a quarter of the inactives have no number. Potency, µM (highest dose often 36.5 µM), for the others: at the highest dose activity change, negative = inhibition, actives largely listed as inhibitors; active = well fitted inhibition curve with a large enough effect; inconclusive = small, poorly fitted or top-dose-only effect; inactive = no such curve, though single readings can be large or run the other way; tested in A549 cells; further: nearly all actives have a fitted effect of over 35% in size; inactives centre near -10
* hit, by the source's call; i = inactive; ? = inconclusive; . = not tested or not shown; [ ] = dose if it differs, or a comment. On the % scale 0 is the no-effect control and ±100 the full control effect; potency means the concentration at half of the fitted maximal effect.

#1 COc1ccc(S(=O)(=O)N(C)C[C@@H]2Oc3ccc(NS(C)(=O)=O)cc3C(=O)N([C@@H](C)CO)C[C@H]2C)cc1
#2 CC(C)(C)[C@H]1COC(=O)CCCC/C=C\C[C@H](CC(=O)NCCO)C(=O)N1
#3 COc1cc(OC)cc(C2=Cc3ccccc3C(CC(C)=O)N2c2ccc(C#CC3(N)CCCCC3)cc2)c1 (centres undefined)
#4 OC(Cn1cncn1)c1ccc(Cl)cc1Cl (centres undefined)
#5 CC(C(=O)O)N1C(=O)CSc2ncccc21 (centres undefined)
#6 CN(C)c1ccc(/C=C2\C=Cc3ccccc32)cc1Br

Compound	1	2	3	4	5	6
Vaccinia mCherry	i	i	-20%	.	.	-17%
VACV Venus inh	-21%	-10%	?	-11%	2%	-12%

#7 N#Cc1ccc(C(=O)N(Cc2ccco2)Cc2cccs2)cc1
#8 COc1ccc(/C=C2\OC(=O)c3c(OC)cccc32)cc1OC
#9 Cc1ccc(-c2noc(C3CCCN(S(=O)(=O)c4ccc(S(=O)(=O)N(C)C)cc4)C3)n2)o1 (centres undefined)
#10 COc1ccc(Cl)cc1NC(=O)N1CCC(CN2CCCCCC2)CC1
#11 COc1cc2c(C(=O)NCc3ccc4c(c3)OCO4)cn(CC(C)C)c(=O)c2cc1OC
#12 Cc1ccc(NC(=O)NC2CC(=O)N(c3ccc4c(c3)OCCO4)C2)cc1 (centres undefined)

Compound	7	8	9	10	11	12
Vaccinia mCherry	24%	.	-12%	-12%	-11%	-27%
VACV Venus inh	-9%	-24%	-3%	-11%	-2%	-13%

#13 CCOC(=O)N1CCN(Cc2nc(N)nc(Nc3ccc(Oc4ccccc4)cc3)n2)CC1
#14 Cc1cccc(-n2ncc(C(=O)NCc3ccccn3)c2C2CCN(C(=O)OC(C)(C)C)CC2)c1
#15 O=C(Nc1ccc(Cl)cn1)C1CC1
#16 C/C=C(\C)C(=O)NCCN1C2=NC[C@H](Cc3ccccc3)N2C[C@H]1Cc1ccc(O)cc1
#17 CC(=O)C(Cc1ccc(Cl)nc1)(Cc1ccc(Cl)nc1)C(C)=O
#18 O=C(COc1ccc(-c2ccccc2)cc1)N1CCN(C(=O)c2cccs2)CC1

Compound	13	14	15	16	17	18
Vaccinia mCherry	.	-9%	-8%	0%	-1%	i
VACV Venus inh	?	-10%	-17%	-17%	0%	-12%

#19 Cc1ccc(-c2nnn3c2nc(NCCc2ccc(Cl)cc2)c2ccccc23)cc1
#20 Cc1ccc(N2CC(C(=O)Nc3ccc(S(=O)(=O)N4CCCC4)cc3)CC2=O)cc1 (centres undefined)
#21 CCc1cc2c(SCc3ccc(C(=O)OC)o3)ncnc2s1
#22 O=c1cc(NS(=O)(=O)c2ccccc2)nc(SCc2c(Cl)cccc2Cl)[nH]1
#23 C[C@H](NC(=O)[C@@H]1Cc2ccccc2CN1)C(=O)NCC1CCCO1 (some centres undefined)
#24 O=C(c1ccc(-c2cccc(Cl)c2Cl)o1)N1CCOCC1

Compound	19	20	21	22	23	24
Vaccinia mCherry	12%	?	-5%	-13%	-4%[7.34 µM]	-10%
VACV Venus inh	10%	-24%	0%	-7%	14%[7.34 µM]	10%

#25 Cc1ccc2c(c1)NC(=O)[C@@]1(C)[C@@H](c3ccccc3)[C@H]3COc4ccc(Cl)cc4[C@@H]3N1C2=O
#26 CCOc1cccc(C2/C(=C(/O)c3ccc4c(c3)CC(C)O4)C(=O)C(=O)N2CCCn2ccnc2)c1 (centres undefined)
#27 O=C1C=C(c2ccccc2)OC(=O)C1C(=O)c1ccccc1 (centres undefined)
#28 CN(C)c1ccc(/C=N/NC(=O)C(O)c2ccc(Br)cc2)cc1 (centres undefined)
#29 CC(=O)Nc1ccc(SCc2ncc(-c3ccccc3)o2)cc1
#30 CCOCCCn1c(SCC(=O)Nc2cccc(OC)c2)nc2ccccc2c1=O

Compound	25	26	27	28	29	30
Vaccinia mCherry	?	i[7.34 µM]	-3%	i	-6%	i
VACV Venus inh	-25%	-9%[7.34 µM]	-3%	-27%	-7%	-14%

#31 Cc1ccc(OCC(=O)NN2C(=O)c3ccccc3C2=O)cc1
#32 COc1ccc2[nH]c(=O)c(CN(Cc3ccccc3OC)Cc3nnnn3CC3CCCO3)cc2c1 (centres undefined)
#33 N#CCCN(C(=O)COC(=O)C1CCN(c2ccc(C(F)(F)F)cn2)CC1)c1ccc(F)cc1
#34 O=C(CSc1nnc(CNC(=O)c2ccc(F)cc2)o1)Nc1ccc2c(c1)OCO2
#35 COc1ccc(C(CC(=O)O)NC(=O)COc2ccccc2OC)cc1OC (centres undefined)
#36 Cc1cc(Cl)ccc1NC(=O)C(=O)N/N=C/c1ccc2c(c1)OCO2

Compound	31	32	33	34	35	36
Vaccinia mCherry	i	-22%	i	-9%	.	-6%
VACV Venus inh	-3%	0%	-16%	-9%	-14%	2%

#37 Cc1cccc(C(=O)N2CCC(c3nc(-c4ccc(S(=O)(=O)N5CCOCC5)cc4)no3)CC2)c1
#38 COC(=O)COc1ccc(S(=O)(=O)N2CCN(c3ccccc3F)CC2)cc1
#39 CCOC(=O)c1nnn(-c2nonc2N)c1-c1ccccc1Cl
#40 CSc1nc(N(CCO)CCO)c2sc3nc(-c4ccco4)c4c(c3c2n1)CCC4
#41 COC(=O)c1ccc(CN2CCN(CCc3ccccc3)C(CCO)C2)cc1 (centres undefined)
#42 CCOc1ccc(Cn2c(SCCCCC#N)nc3c2c(=O)n(C)c(=O)n3C)cc1OCC

Compound	37	38	39	40	41	42
Vaccinia mCherry	i	-1%	i	-20%	-17%	?
VACV Venus inh	-16%	-17%	-11%	?	-6%	-3%

#43 COc1ccc(CSc2nc(CSC)cc(N3CCOCC3)n2)cc1
#44 CCOc1ccc(-n2nnc3c(=O)n(C/C=C/c4ccccc4)cnc32)cc1
#45 CC(C)n1c(Nc2ccccc2)nc2ccccc21
#46 CCN(CC)S(=O)(=O)N1CCC(C(=O)N2CCC3(CC2)OCCO3)CC1
#47 O=C(COC(=O)[C@@H]1CC(O)CN1S(=O)(=O)c1ccc2c(c1)OCCO2)NCc1ccc(F)cc1 (some centres undefined)
#48 O=C(NCCN1CCN(c2ccccc2)CC1)C1CCCN(S(=O)(=O)c2cnc[nH]2)C1 (centres undefined)

Compound	43	44	45	46	47	48
Vaccinia mCherry	-11%	-14%	-18%	i	-5%	3%
VACV Venus inh	-12%	-6%	-11%	-3%	-5%	-4%

#49 COc1ccc(OC)c(-c2csc(-c3c(N)c(C(=O)c4ccc(Cl)cc4)n4ccccc34)n2)c1
#50 COc1cccc(OC)c1C(=O)OCC(=O)NC(=O)NCc1ccccc1
#51 CCCCN1C(=O)C(CC(=O)NCc2cccc3ccccc23)CC(C(=O)N(CC)CC)=C1C (centres undefined)
#52 Nc1ccccc1S(=O)(=O)c1ccccc1N
#53 Cc1cc(C(=O)OCC(=O)c2c(N)n(C)c(=O)n(C)c2=O)c(C)n1-c1ccccc1
#54 COc1cc(CN2CCN(C(=O)CC(C)C)CC2)c([N+](=O)[O-])cc1OC

Compound	49	50	51	52	53	54
Vaccinia mCherry	-6%	-3%	i	-8%	.	-15%
VACV Venus inh	1%	-20%	-17%	-7%	-20%	-8%

#55 CCOc1cc(C(=O)Nc2cccc3cccnc23)cc(OCC)c1OCC
#56 Cc1ccc(S(=O)(=O)N(C)c2c(C)ccc(S(=O)(=O)NC(C)(C)C)c2C)cc1
#57 COc1ccccc1NC(=O)CSc1nc2ccccc2c(=O)n1CC1CCCO1 (centres undefined)
#58 O=C(NC1CCCC1)c1cc(S(=O)(=O)N2CCOCC2)c(Cl)cc1Cl
#59 COc1ccc(CCNC(=O)c2cccnc2SC)cc1
#60 COc1ccc(CC(=O)Nc2cccc(C(=O)O)c2C)cc1

Compound	55	56	57	58	59	60
Vaccinia mCherry	-6%	-2%	-16%	-9%	i	-18%
VACV Venus inh	-14%	1%	-10%	-19%	-12%	-10%

#61 CSc1ccc(/C=N\Nc2nncn2N)cc1
#62 COc1ccc(-c2cc(=O)oc3cc(OC(C)C(=O)NC(Cc4c[nH]c5ccc(O)cc45)C(=O)O)ccc23)cc1 (centres undefined)
#63 O=C(COc1ccccc1)N1CCN(S(=O)(=O)c2cccc([N+](=O)[O-])c2)CC1
#64 COc1ccc(CCN=Cc2ccccc2O)cc1OC
#65 CSc1ccc(/C=C2\C=C(C(O)c3ccc(SC)cc3)c3ccccc32)cc1 (centres undefined)
#66 CC1CCCCN1c1nnc(NC(=O)c2cc(-c3ccc(Br)cc3)on2)s1 (centres undefined)

Compound	61	62	63	64	65	66
Vaccinia mCherry	-6%	2%	6%	i	-13%	-1%
VACV Venus inh	-15%	-8%	1%	6%	?	-13%

#67 Cc1noc(NS(=O)(=O)c2ccc(NC(=O)COc3ccccc3)cc2)c1C
#68 CCOC(=O)c1[nH]c(C)c(C(=O)Nc2ccccc2F)c1C
#69 Cc1cc(C)n(-c2ccc(Cl)c(C(=O)Nc3cc(C(F)(F)F)ccc3Cl)n2)n1
#70 O=C(NC(=S)Nc1nc2c(s1)CCCC2)c1ccc(C(=O)c2ccccc2)cc1
#71 Cc1ccc(S(=O)(=O)n2[nH]c(=O)c(CCO)c2C)cc1
#72 Cc1nc(SCC(=O)Nc2c(C)n(C)n(-c3ccccc3)c2=O)nc(C)c1C

Compound	67	68	69	70	71	72
Vaccinia mCherry	i	?	-17%	i	i	-12%[1.46 µM]
VACV Venus inh	-12%	-21%	?	-16%	-4%	-15%

#73 CCc1ccc(C(=O)N2CCN(c3ccc(NC(=O)c4cccnc4)cc3)CC2)cc1
#74 O=C(Nc1ccc(F)cc1)Nc1nnc(Cc2ccccc2)s1
#75 O=C(NC1CCCC1)c1cc2cc(Br)ccc2o1
#76 O=C(COC(=O)c1ccccc1F)Nc1cccnc1Cl
#77 c1ccc(CN(Cc2ccccc2)c2ncnc3c2nnn3Cc2ccccc2)cc1
#78 Cc1cccc(-n2ncc3c(Nc4c(C)n(C)n(-c5ccccc5)c4=O)ncnc32)c1

Compound	73	74	75	76	77	78
Vaccinia mCherry	-18%	i	-5%	i	-19%	-16%
VACV Venus inh	-17%	-4%	-14%	-3%	-6%	-15%

Some of these compounds in order of length of the SMILES, ascending:
#75 O=C(NC1CCCC1)c1cc2cc(Br)ccc2o1
#76 O=C(COC(=O)c1ccccc1F)Nc1cccnc1Cl
#74 O=C(Nc1ccc(F)cc1)Nc1nnc(Cc2ccccc2)s1
#71 Cc1ccc(S(=O)(=O)n2[nH]c(=O)c(CCO)c2C)cc1
#77 c1ccc(CN(Cc2ccccc2)c2ncnc3c2nnn3Cc2ccccc2)cc1
#66 CC1CCCCN1c1nnc(NC(=O)c2cc(-c3ccc(Br)cc3)on2)s1 (centres undefined)
#67 Cc1noc(NS(=O)(=O)c2ccc(NC(=O)COc3ccccc3)cc2)c1C
#72 Cc1nc(SCC(=O)Nc2c(C)n(C)n(-c3ccccc3)c2=O)nc(C)c1C

Compound	75	76	74	71	77	66	67	72
Vaccinia mCherry	-5%	i	i	i	-19%	-1%	i	-12%[1.46 µM]
VACV Venus inh	-14%	-3%	-4%	-4%	-6%	-13%	-12%	-15%

#70 O=C(NC(=S)Nc1nc2c(s1)CCCC2)c1ccc(C(=O)c2ccccc2)cc1
#73 CCc1ccc(C(=O)N2CCN(c3ccc(NC(=O)c4cccnc4)cc3)CC2)cc1
#78 Cc1cccc(-n2ncc3c(Nc4c(C)n(C)n(-c5ccccc5)c4=O)ncnc32)c1

Compound	70	73	78
Vaccinia mCherry	i	-18%	-16%
VACV Venus inh	-16%	-17%	-15%

(listing goes on)
#79 Cc1nc2ccccc2c(=O)n1-c1ccc(NS(=O)(=O)c2cc(F)ccc2F)cc1
#80 COc1ccc(C(=O)C(C)Oc2cccc(NC(=O)c3cccc([N+](=O)[O-])c3)c2)cc1 (centres undefined)
#81 C=CCNC(=O)c1onc(CSc2ccc(F)cc2)c1C(=O)O
#82 Cc1ccc(-c2nc(CSCC(=O)Nc3cc(C)on3)c(C)o2)cc1
#83 CCSc1nc(=S)cc(C)[nH]1
#84 O=c1[nH]c2ccccc2n1C1=CCCC1

Compound	79	80	81	82	83	84
Vaccinia mCherry	-16%	i	i	-13%	-1%	.
VACV Venus inh	-8%	-6%	-8%	-8%	-10%	?

Sorted by heavy-atom count (rising): part of the list above.
#83 CCSc1nc(=S)cc(C)[nH]1
#82 Cc1ccc(-c2nc(CSCC(=O)Nc3cc(C)on3)c(C)o2)cc1
#80 COc1ccc(C(=O)C(C)Oc2cccc(NC(=O)c3cccc([N+](=O)[O-])c3)c2)cc1 (centres undefined)

Compound	83	82	80
Vaccinia mCherry	-1%	-13%	i
VACV Venus inh	-10%	-8%	-6%

Following part
#85 O=C(COc1coc(CN2CCc3ccccc3C2)cc1=O)Nc1ccc(F)cc1
#86 C[C@H]1CN([C@@H](C)CO)C(=O)c2cccc(NC(=O)Nc3ccc(C(F)(F)F)cc3)c2O[C@@H]1CN(C)C(=O)Nc1ccc(F)cc1
#87 O=S(=O)(c1ccccc1)c1nc(NCc2ccccc2)sc1Cl
#88 Cc1ccc(S(=O)(=O)CCc2nnc(NC(=O)CCl)s2)cc1C

Compound	85	86	87	88
Vaccinia mCherry	-14%	?	-13%	-14%
VACV Venus inh	-14%	?	1%	-27%
